Assay outcomes as filed in PubChem.
NPYLR7 ag: mosquito NPYLR7 agonism | activation, % at 10 µM | AID 1259423 | 0.15% of 270,000 active | HEK293T NPYLR7/Galpha15, GCaMP6s calcium fluorescence; in the data active = activation above about 40%;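 note: 0% = vehicle and 100% = reference agonist at the receptor; some compounds past the cut are filed as inactive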
NPYLR7 ag max-min: recorded beside NPYLR7 ag, whose call it bears; activation, %; measured here: Max-Min RFU normalised activation; some inactives read as strong as hits;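 span of the calcium signal over five minutes; 0% = vehicle and 100% = native peptide agonist; compound fluorescence can raise it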
The depositor's hits bear a star; & = joins results of further samples. Not all compounds are listed, so the mix of outcomes need not match the whole.

SMILES	NPYLR7 ag	NPYLR7 ag max-min
O=C(Nc1ccc(Nc2cc(-n3cccn3)ncn2)cc1)Nc1ccc2c(c1)OCCO2	-10	-13
CC(C)NC(=O)N1CCN(c2nc3ccccc3[nH]2)CC1	2	-1
CC(C)(C)c1csc(=S)[nH]1	8	6
CCC(CC)C(=O)N(Cc1cc(NC(=O)CC(C)(C)C)ccc1N(C)C)C(C)C(C)C (centres undefined)	15	28
Cc1cnc(-n2cnnc2)c(-c2ccc(F)c(CO)c2)c1	9	5
CC(C)CNc1cc(C(=O)N2CCCN(C)CC2)cc(S(=O)(=O)NC(C)(C)C)c1	0&18	-2&10
O=C(CN1CCN(C(=O)c2ccc(=O)[nH]n2)CC1)Nc1ccccc1Cl	4	4
CC(C)c1cc(=O)[nH]c(-n2nc(-c3cccs3)cc2NC(=O)c2ccc3c(c2)OCO3)n1	0	-3
Cc1cc(=O)n2nc(C(F)(F)F)nc2n1CC(O)c1ccccc1 (centres undefined)	-15	-15
O=C(c1ccc(F)cc1)N(Cc1ccccc1)Cc1c(-c2ccccc2)noc1N1CCCC1	3	5
CCC1CCCN1CCCS(=O)(=O)NC (centres undefined)	14	6
COc1ccc(Cl)cc1Nc1nc(-c2cc3ccccc3oc2=O)cs1	-3	-9
Cc1ccc2nc(CN(C)Cc3ccc(S(C)(=O)=O)cc3)[nH]c2c1	-3	-4
Cc1cc(C(=O)CSc2nnc(-c3ccco3)n2C)c(C)n1Cc1ccco1	-1	1
CN(C(=O)c1ccncc1)C1CC(C)(C)N(C)C(C)(C)C1	1	1
O=C(CSc1ncnc2c1nnn2Cc1ccc(Cl)cc1)NCc1ccc2c(c1)OCO2	5	4
O=C(c1cc2cc(F)ccc2[nH]1)N1CCOC(CO)C1 (centres undefined)	-1	-1
COc1ccc(N2CCN(CCc3c[nH]c4ccc(NC(=O)c5cc(F)cc(F)c5)cc34)CC2)cc1	13	10
CCCCOc1ccc(NC(=O)c2cc3ccccc3oc2=O)cc1	22	24
COc1ccc(-n2nc(C(=O)NCC3CCCO3)c(=O)n(Cc3ccccc3F)c2=O)cc1 (centres undefined)	12	7
Cc1ccc(NC(=O)N2CC(S(=O)(=O)N3CCN(C(=O)OC(C)(C)C)CC3)C2)s1	-2	-4
CC(NS(=O)(=O)c1ccc(Cl)s1)C1CC2CCC1C2 (centres undefined)	-1	-3
Cc1nn(C)c(Cl)c1CN1CCCC(C(=O)Nc2ccc(-c3cscn3)cc2)C1 (centres undefined)	5	-1
O=C(Nc1cccc(-c2ccc(F)cc2)c1)C1CCCN1C(=O)c1ccncc1 (centres undefined)	-3	-3
CCOCCCC(=O)N1c2c(c(C)nn2C)N(C(=O)OC(C)(C)C)CC1C (centres undefined)	1	-3
CN(Cc1ccc(-n2cccn2)cc1)Cc1ncccc1C(=O)O	-1	9
O=C(c1scc2c1OCCO2)N1CCCCCC1	-5	-4
CCn1nc(C)c(NC(=O)CN2CC[C@@H](F)C2)c1C	3	1
CN(C)Cc1nc(C(=O)N2CCCC(Nc3ccccc3)C2)cs1 (centres undefined)	0	-6
CCCCCCCCCCOc1ccc(C2=N/C(=C\C(C)=C\c3ccccc3)C(=O)O2)cc1	25	4
Cc1ccc([C@H]2[C@@H](C#N)[C@H](C#N)N3CCCN23)cc1	1	-3
CC1CC(C)CN(c2nc(N)ncc2[N+](=O)[O-])C1 (centres undefined)	-2	-1
CC(C)Cc1cc(C(=O)N2CCC(CCC(=O)N3CCN(c4ccccc4)CC3)CC2)n[nH]1	3	-1
O=C1C(Cl)=C(NCCN2CCOCC2)C(=O)c2ncccc21	14	12
O=C(CSc1ccc(-c2ccc(-n3cccn3)cc2)nn1)Nc1ccccc1	-2	-5
Clc1ccc(OCC#CCn2ccnc2)cc1	2	1
Cc1ccc(C(=O)N(C)C(C)c2ccon2)cc1N1CCNC1=O (centres undefined)	2	0
CC(C)(C)C1CN(Cc2cccc(F)c2)C(=O)c2cccnc2O1 (centres undefined)	-3	8
O=C(NCC(O)(c1ccccc1)c1ccccc1)C(O)(c1ccccc1)c1ccccc1	-11	-13
c1ccn2ncc(CNc3nc(C4CCCC4)nc4c3CNC4)c2c1	19	11
COc1ccc(CN2CCNC(=O)C2CC(=O)N2CCCO2)c(OC)c1 (centres undefined)	11	-4
CCOC(=O)C1=C(CC)NC2=C(C(=O)CC(C)(C)C2)C1c1ccccc1F (centres undefined)	-1	-7
Cn1ccnc1C(=O)c1ccc(NC(=O)C=Cc2cccs2)cc1	10	7
O=C1NC2(CCOc3ccccc32)C(=O)N1Cc1coc(-c2cccs2)n1 (centres undefined)	2	-2
CCCc1[nH]n(-c2cccc(Cl)c2)c(=O)c1/C=C1\NC(=O)N(Cc2ccc(C(F)(F)F)cc2)C1=O	18	33
C=CCn1c(SCc2cc(=O)[nH][nH]2)nc2sc3c(c2c1=O)CCCC3	4	1
CCN(CC)C(=O)c1cn[nH]c1-c1ccc(Cl)cc1	0	0
COc1ccc(C(C)=O)cc1Cn1cc(C(=O)NCc2cccc(C(F)(F)F)c2)sc1=O	7	0
COc1ccc(CCNC(=O)c2ccc(-c3cccc(C(F)(F)F)c3)s2)cc1OC	21	29
Cn1cc(CN(C(=O)C(O)c2ccc(C(F)(F)F)cc2)C2CC2)cn1 (centres undefined)	10	7

Overlap with the part before: two compounds, followed by the next part.
SMILES	NPYLR7 ag	NPYLR7 ag max-min
COc1ccc(CCNC(=O)c2ccc(-c3cccc(C(F)(F)F)c3)s2)cc1OC	21	29
Cn1cc(CN(C(=O)C(O)c2ccc(C(F)(F)F)cc2)C2CC2)cn1 (centres undefined)	10	7
O=C(NC(c1ccccc1)c1ccsc1)C1CCN(CCCOc2ccc(F)cc2)CC1 (centres undefined)	8	-3
CC1C(=O)N(c2ccc(-c3ccccc3)cc2)CCN1Cc1c(F)cccc1F (centres undefined)	0	3
CN1CC(=O)N(CN2CCCC2c2nc3ccccc3s2)C1=O (centres undefined)	1	2
C=CCNc1nnc(SCC(=O)NC(=O)NC2CCCCC2)s1	7	9
CC(C)C(=O)N(Cc1cc(NC(=O)c2cccs2)ccc1N(C)C)CC1CC1	1	5
CC(C)N1CCC(=O)NC1=O	2	8
Cc1cc(=O)n2nc(N3CCNC(=O)C3)sc2n1	-1	-3
CNc1cc(-c2cccc(F)c2)ncn1	6	3
Cc1ccccc1CSc1nc2c(c(=O)n1CCc1ccccc1)SCC2	6	3
Cc1ccc(-n2cc(-c3ccc(Cl)cc3)nc2NC(=O)CNCCN(C)C)cc1	24	12

19 compounds from above, arranged by SMILES length, ascending.
SMILES	NPYLR7 ag	NPYLR7 ag max-min
CCC1CCCN1CCCS(=O)(=O)NC (centres undefined)	14	6
CNc1cc(-c2cccc(F)c2)ncn1	6	3
Clc1ccc(OCC#CCn2ccnc2)cc1	2	1
O=C(c1scc2c1OCCO2)N1CCCCCC1	-5	-4
Cc1cc(=O)n2nc(N3CCNC(=O)C3)sc2n1	-1	-3
O=C(c1cc2cc(F)ccc2[nH]1)N1CCOC(CO)C1 (centres undefined)	-1	-1
Cc1cnc(-n2cnnc2)c(-c2ccc(F)c(CO)c2)c1	9	5
CN(Cc1ccc(-n2cccn2)cc1)Cc1ncccc1C(=O)O	-1	9
CN(C)Cc1nc(C(=O)N2CCCC(Nc3ccccc3)C2)cs1 (centres undefined)	0	-6
CN(C(=O)c1ccncc1)C1CC(C)(C)N(C)C(C)(C)C1	1	1
CC(C)(C)C1CN(Cc2cccc(F)c2)C(=O)c2cccnc2O1 (centres undefined)	-3	8
COc1ccc(CN2CCNC(=O)C2CC(=O)N2CCCO2)c(OC)c1 (centres undefined)	11	-4
O=C(CSc1ccc(-c2ccc(-n3cccn3)cc2)nn1)Nc1ccccc1	-2	-5
Cn1cc(CN(C(=O)C(O)c2ccc(C(F)(F)F)cc2)C2CC2)cn1 (centres undefined)	10	7
CCOC(=O)C1=C(CC)NC2=C(C(=O)CC(C)(C)C2)C1c1ccccc1F (centres undefined)	-1	-7
O=C(NCC(O)(c1ccccc1)c1ccccc1)C(O)(c1ccccc1)c1ccccc1	-11	-13
CC(C)CNc1cc(C(=O)N2CCCN(C)CC2)cc(S(=O)(=O)NC(C)(C)C)c1	0&18	-2&10
CCC(CC)C(=O)N(Cc1cc(NC(=O)CC(C)(C)C)ccc1N(C)C)C(C)C(C)C (centres undefined)	15	28
Cc1ccc(NC(=O)N2CC(S(=O)(=O)N3CCN(C(=O)OC(C)(C)C)CC3)C2)s1	-2	-4

Carrying on:
SMILES	NPYLR7 ag	NPYLR7 ag max-min
O=C1C(=Cc2ccc(-c3ccccc3)cc2)CS(=O)(=O)c2ccc(F)cc21	0	-1
CCN(CC)CCN(C(=O)CN1C(=O)CCC1=O)c1nc2cc3c(cc2s1)OCO3	-4	-5
CCOc1ccc(-n2nnc3c(=O)n(Cc4cc(C)ccc4C)cnc32)cc1	3	7
CC(C)N1CCC(C(=O)N(Cc2ccccn2)C[C@@H]2CCC(=O)N2)CC1	-1	-5
Brc1ccc(Cn2nnc(-c3ccc4c(c3)OCO4)n2)cc1	3	0
C1COC(CN2CCN(C3CCC4(CCNCC4)CC3)CC2)C1 (centres undefined)	12	7
O=C(Nc1c(F)c(F)c(F)c(F)c1F)c1cc2c(=O)n3ccccc3nc2s1	-7	-9
CN(C1CCS(=O)(=O)C1)S(=O)c1ccc2ccccc2c1 (centres undefined)	-1	-1
CC(C)Oc1ccc(C(O)=C2C(=O)C(=O)N(CCCn3ccnc3)C2c2ccc([N+](=O)[O-])cc2)cc1 (centres undefined)	9	9
CCc1cn[nH]c1C1CCCN(C(=O)c2cc3cc(Cl)cc(OC)c3o2)C1 (centres undefined)	3	2
O=C(Nc1cccc(Cl)c1)NC1CCN(c2ccccc2C(=O)NCc2ccncc2)CC1	18	29
CC1CC(C)CN(C(=O)CSc2nnc(Nc3ccc(C(C)C)cc3)s2)C1 (centres undefined)	0	3
Cc1nc2nc(-c3cc(Cl)ccc3O)cc(C(=O)O)c2[nH]1	-2	-2
Cc1ccccc1CSc1ccc2nnc(-c3cccs3)n2n1	-3	-4
CCOC(=O)C1=C(C)NC(=S)NC1c1ccc(OC)c(OC)c1 (centres undefined)	-2	2
CO[C@H]1C(=O)N(C)C2(CCN(C(=O)Cc3cccs3)CC2)[C@@H]1C(=O)Nc1ccccc1	23	29
CC(OC(=O)c1cccc(C#N)c1)C(=O)NC(=O)NC(C)(C)C (centres undefined)	-1	10
CCOC(=O)O[C@]1(C(=O)COC(=O)CC)CCC2C3CCC4=CC(=O)C=C[C@]4(C)C3[C@@H](O)C[C@@]21C (some centres undefined)	2	2
CC(=O)c1ccc(OCC(=O)Nc2ccc(I)cc2)cc1	3	0
CN(C)C=Nc1nc(-c2ccc3c(c2)OCO3)cs1	-4	-8
CSc1ccc(C(=O)CCC(=O)NCCc2ccc(F)cc2)cc1	-8	-14
O=C(c1cccs1)N1CCc2ccccc2C1c1ccc(Cl)cc1 (centres undefined)	-1	3
O=C(CCl)N1CCN(S(=O)(=O)c2cccc(F)c2)CC1	-1	-10
CCOC(=O)c1sc2nc(C(C)OC(=O)C3CC4CCCC(C3)C4=O)[nH]c(=O)c2c1C (centres undefined)	4	3
CC(NS(=O)(=O)N(C)C(C)C)C(=O)N(C)C (centres undefined)	7	3
CN(C(=O)c1cc(CCc2ccccc2)no1)C1CCOC1 (centres undefined)	9	2
COc1ccc(S(=O)(=O)NCc2cccnc2)cc1	-8	1
Cc1cc(F)ccc1S(=O)(=O)Nc1c(C)c(C)nn1C	2	-1
N#Cc1ccc(C=Cc2nc3cc(Cl)ccc3o2)cc1	1	-1
O=C(C1Cc2ccccc2C1)N1CCC(Cn2cc(CCO)nn2)CC1	-2	-7
O=C(NCc1ccc(F)c(F)c1)c1cncn1-c1cccc(-c2ccccc2C(F)(F)F)c1	7	0
Cc1cc(Nc2ccc3c(n2)C(=O)N(CC(=O)N[C@H]2CCc4ccccc42)C3)n(C)n1	6	4
CCOCCOc1nc(-c2cccc(OC)c2)n(-c2ccc(N)cc2)n1	-3	-10
O=C1CC2(CCCC2)C(=O)N1CC(O)CN1C(=O)c2ccccc2C1=O (centres undefined)	8	2
COc1ccc(NC(=O)c2ccc(OC)nc2)c(OC)c1	9	8
C#CCn1c(=NC(=O)c2ccn(C)n2)sc2cc(OCC)ccc21	3	10
O=C(Nc1cccc(-c2cccc(F)c2)c1)C1CCN(CC2CCOC2)CC1 (centres undefined)	1	1
CC(C)=CC(=O)N1CCCN(C)C2(CCN(C)CC2)C1	2	1
N[C@@H](C(=O)NCC1=CCCCC1)c1ccccc1	24	19
CC(=O)N1CCC(=O)N(CC2CC2)Cc2cc3c(cc21)OCO3	12	22
Brc1ccc2nc(-c3cccs3)c(NCc3ccccc3)n2c1	3	12
Cc1ccc(C)c(-n2nc(C)nc2C2CCNCC2)c1	3	-1
O=C(O)[C@H]1NCCC[C@H]1C(=O)O	-1	26
COc1ccccc1NC(=O)NCc1nnc(SCc2ccc(F)cc2)n1-c1cc(Cl)ccc1C	-4	6
N#Cc1cccc(NC(=O)N2CCCC2CN2CCCCC2)c1 (centres undefined)	8	5
C=CCN1C(=O)C(=Cc2cccc(OC)c2O)SC1=S	5	1
COc1ccc(C(=O)N2CCN(C3=NS(=O)(=O)c4ccccc43)CC2)c(OC)c1	-3	-7
Cc1ccc(O)c(NS(=O)(=O)c2c(C)nn(C(C)(C)C)c2C)c1	9	8
CC1(C(=O)NC2CCCC2)CCN1C(=O)c1ccccc1CCc1ccccc1 (centres undefined)	5	4
CCC(=NNc1nc(C)cc(=O)[nH]1)C(CC)=NNc1nc(C)cc(=O)[nH]1	11	10
CC1CC1C(=O)Nc1cccc(C(=O)Nc2ccccc2C#N)c1 (centres undefined)	0	-1
Cc1cc(F)ccc1NC(=O)CNCc1ccc2c(c1)OCO2	6	6
